Source: PubChem
CBX7 AlphaScr: blocks human CBX7 binding to H3K27me3 peptide. O95931. AlphaScreen His6-CBX7 / biotin-H3K27me3 peptide binding; stronger effect = lower value. normalised signal (fraction of DMSO) (test concentration not listed). hit rate 1.1% among 66,000. AID 1224903; in the data active = normalised signal below about 0.5;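 note: 100 nL library stock added to about 20 µL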
Target sequence (O95931 whole entry, looked up): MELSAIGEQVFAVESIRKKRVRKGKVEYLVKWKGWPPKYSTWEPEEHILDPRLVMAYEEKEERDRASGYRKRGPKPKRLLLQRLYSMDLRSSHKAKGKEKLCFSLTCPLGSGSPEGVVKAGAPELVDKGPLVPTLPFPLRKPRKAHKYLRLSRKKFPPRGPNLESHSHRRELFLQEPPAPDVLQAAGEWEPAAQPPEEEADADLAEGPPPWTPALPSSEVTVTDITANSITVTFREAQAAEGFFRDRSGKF
CBX7 AlphaScr z-score: second read-out of CBX7 AlphaScr, no call of its own (marks repeat the call); z-score; measured here: z-score of CBX7 signal; some inactives read as strong as hits; reference of the scale not given here;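 same signal on another scale; lower means less binding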
* marks the source's active call; other numbers are inactive results; & = joins results of further samples. Only part of the results is shown; rates above refer to the full screens.

| SMILES | CBX7 AlphaScr z-score | CBX7 AlphaScr |
| --- | --- | --- |
| CC1(C)CC(=O)C2=C(C1)c1c(ccc3ncccc13)NC2c1ccc(O)cc1 (configuration not stated) | 2.31 | 1.14 |
| CCCN1CCN(CCCNC(=O)CN2C(=O)COc3ccc(C(C)(C)C)cc32)CC1 | -0.693 | 0.975 |
| COc1ccccc1CNC(=O)c1ccc2c(c1)nc(C)n2-c1cccc(C)c1 | -0.743 | 0.983 |
| COc1ccccc1NC(=O)c1c(NCc2ccncc2)sc2c1CCCC2 | -5.84 | 0.583 |
| CCCCOc1ccccc1C1CC(=O)Nc2cc3c(cc21)OCCO3 (configuration not stated) | -1.25 | 0.844 |
| COc1ccc(-n2c3c(cc(C(=O)Nc4ccccc4Br)c2=O)C(=O)CCC3)cc1 | 1.08 | 1.1 |
| Cn1nc(-c2ccc(Cl)cc2)c2cc(C(=O)NCc3ccc(F)cc3)sc21 | 1.67 | 1.4 |
| COc1ccccc1-c1cc(C(=O)Nc2cnn(Cc3ccc(Cl)cc3Cl)c2)no1 | 0.0544 | 1 |
| CC1(C)CC(=O)C2=C(C1)NC(=O)CC2c1ccccc1Br (configuration not stated) | -0.0407 | 0.969 |
| COc1ccc(-c2[nH]c(-c3ccccc3)nc2SCC(=O)Nc2ccccc2)cc1 | -3.81 | 0.92 |
| CCN(CC)CCNC(=O)c1ccc2c(c1)N(Cc1ccc(F)cc1Cl)C(=O)CS2 | 12.9 | 1.84 |
| O=C(Nc1ccccc1I)c1ccc2c(c1)NC(=O)c1ccccc1S2 | -0.352 | 0.987 |
| COC(=O)c1nc(-c2ccccc2)oc1N1CCOCC1 | 0.821 | 1.07 |
| Cc1ccc(S(=O)(=O)N2CCC(C(=O)Nc3cc(C)ccc3C)CC2)cc1 | -0.243 | 0.994 |
| CCOc1ccc2c(c1)c(=O)c(S(=O)(=O)c1ccc(C)cc1)cn2CC(=O)Nc1ccccc1C | -1.13 | 0.92 |
| COc1ccc(OC)c(NC(=O)COc2ccc(Br)cc2C(C)(C)C)c1 | -2.22 | 0.857 |
| Cc1ccc2c(nc3s/c(=C\c4ccc(F)cc4F)c(=O)n32)c1C | -0.395 | 0.969 |
| CCOC(=O)N1CCN(c2c(-c3ccccc3)c3cc(Cl)ccc3[nH]c2=O)CC1 | -1.26 | 0.894 |
| Cc1ccc(-c2nc(CS(=O)(=O)CC(=O)Nc3ccc(C)cc3Cl)c(C)o2)cc1 | -0.0584 | 0.972 |
| Cc1cccc(C)c1Nc1c(-c2ccccn2)nc2c(C)cccn12 | -0.224 | 0.871 |
| COC(=O)c1nnn(-c2nonc2N)c1CSc1nc2ccccc2o1 | 0.0954 | 1 |
| Cc1ccc2cc(CCNC(=O)COc3ccc(Cl)cc3Cl)c(=O)[nH]c2c1 | 2.65 | 1.21 |
| CC(=O)Nc1nc2c(s1)C(=O)NCC(C)(C)C2 | -0.0163 | 0.999 |
| CCOC(=O)C1CC1C1NCCc2c1[nH]c1ccccc21 (configuration not stated) | 2.18 | 1.21 |
| Cc1cc2nc(Cc3ccccc3F)c(=O)[nH]c2cc1C | 2.79 | 1.09 |
| O=C(CCn1nc(-c2ccc(Cl)cc2)ccc1=O)NCCN1CCCC1 | 1.87 | 1.1 |
| O=c1c(S(=O)(=O)c2ccccc2)cn(Cc2ccccc2F)c2ccc(F)cc12 | -0.465 | 0.976 |
| COc1ccc(Nc2cc(C(=O)NC3CCCCC3C)c3ccccc3n2)c(OC)c1 (configuration not stated) | -3.91 | 0.745 |
| COc1ccccc1OCc1nc(C#N)c(N2CCN(c3ccccc3)CC2)o1 | -6.13 | 0.516 |
| Cc1n[nH]c(C)c1CCOc1ccccc1C(C)C | -0.94 | 0.982 |
| COc1ccc(N2CCN(CC(O)COc3ccc(C)cc3C(C)(C)C)CC2)cc1 (configuration not stated) | -1.34 | 0.849 |
| Cc1nn(Cc2ccc(F)cc2)c(C)c1NC(=O)c1noc2c1CCc1ccccc1-2 | -1.65 | 0.861 |
| O=C(Nc1ccc2oc(-c3cccnc3)nc2c1)c1ccccc1Cl | -0.0347 | 0.974 |
| O=C(Nc1nc2ccccc2n1CCOc1ccc(Br)cc1)c1cccs1 | 0.846 | 1.08 |
| CCOC(=O)c1c(NC(=O)c2ccc(Br)cc2)sc2c1CCCCC2 | 3.11 | 1.41 |
| Cc1oc(-c2cccc(Cl)c2)nc1CS(=O)(=O)CC(=O)NCCC1=CCCCC1 | -4.65 | 0.903 |
| COc1ccc(OC)c2[nH]c(=O)c(CCNC(=O)c3cccc4ccccc34)cc12 | -1.65 | 0.959 |
| CC(C)(C)c1ccc2c(c1)N(CC(=O)NCCCN1CCc3ccccc3C1)C(=O)CO2 | -2.91 | 0.832 |
| Fc1ccc(-c2csc(N3CCN(c4ccccc4F)CC3)n2)cc1 | 2.7 | 1.11 |
| CCn1cc(C(=O)NCCC(C)C)c2cc(OC)c(OC)cc2c1=O | 0.601 | 1.07 |
| CCN(CC)c1ccc(NS(=O)(=O)c2ccc3c(c2)CC(C)N3C(C)=O)c(C)c1 (configuration not stated) | -0.226 | 0.944 |
| CCCCn1c(C(Cc2ccccc2)NC(=O)COC)nc2ccccc21 (configuration not stated) | 2.95 | 1.15 |
| Cc1cc(C)c(NC(=O)C2CCN(C(=O)c3cnn(-c4ccccc4)c3-n3cccc3)CC2)c(C)c1 | -0.244 | 0.894 |
| O=C(O)c1c2c(nc3ccc(S(=O)(=O)N4CCC(C(=O)N5CCCCC5)CC4)cc13)CCCCC2 | 0.0516 | 1 |
| CCOC(=O)c1cnc2c(Cl)cccc2c1Nc1cccc(C(F)(F)F)c1 | 0.66 | 1.06 |
| CCn1cnc2cc(NC(=O)c3ccc(C)cc3)ccc21 | -0.0816 | 0.997 |
| Cc1ccc(S(=O)(=O)N2CCC(C(=O)NCc3ccccc3)CC2)cc1 | 2.78 | 1.07 |
| O=C(Nc1ccc(F)cc1)c1cn(-c2ccc(F)cc2F)c(=O)c2ccccc12 | -0.916 | 0.933 |
| CC(O)(C#Cc1ccccc1)c1ccc(N2CCCCC2)c(F)c1 (configuration not stated) | 0.33 | 1.03 |
| FC(F)(F)c1ccc2nnc(-c3ccc(Cl)cc3Cl)n2c1 | -2.16&-0.0159 | 0.788&0.986 |
| Fc1cc(Br)ccc1-n1ncnc1-c1ccc(Cl)cc1 | -0.489 | 0.963 |
| CC(NC(=O)c1ccc2nc(N3CCOCC3)sc2c1)c1ccccc1 (configuration not stated) | 1.1 | 1.12 |
| Cc1ccc(C)c(NC(=O)C(Cc2ccccc2)N2C(=O)c3ccccc3C2=O)c1 (configuration not stated) | 0.0311 | 1.01 |
| Cc1nc2ccc(S(=O)(=O)N(C)CC(=O)Nc3cccc(C(F)(F)F)c3)cc2s1 | 1.59 | 1.27 |
| O=C(COc1ccc(Cl)cc1)NCc1nnc(SCC(=O)Nc2ccccc2)o1 | -0.858 | 0.944 |
| COc1cccc(-c2nn(C)c3sc(C(=O)Nc4ccc(Cl)cn4)cc23)c1 | -0.484 | 0.983 |
| O=C(O)CCNS(=O)(=O)c1cccc2cccnc12 | 0.547 | 1.02 |
| Cc1cn(-c2nc(-c3ccccc3)oc2-c2ccccc2)c(=O)[nH]c1=O | -1.53&0.965 | 0.872&1.04 |
| CCN(CC)c1cc(C)c2cc(NC(=O)Cc3ccccc3OC)ccc2n1 | 1.26 | 1.12 |
| CC(C)(C)NC(=O)Nc1ccc2snnc2c1 | 0.595 | 1.01 |

In another format: results already given
The line under a structure holds: CBX7 AlphaScr z-score, CBX7 AlphaScr
> FC(F)(F)c1ccc2nnc(-c3ccc(Cl)cc3Cl)n2c1
  -2.16&-0.0159, 0.788&0.986
> Fc1cc(Br)ccc1-n1ncnc1-c1ccc(Cl)cc1
  -0.489, 0.963

(listing goes on)
| SMILES | CBX7 AlphaScr z-score | CBX7 AlphaScr |
| --- | --- | --- |
| O=C(NCCc1ccccc1)c1ccc(CNc2c(N3CCCCC3)c(=O)c2=O)cc1 | -0.216 | 0.906 |
| O=C(CSc1nccn1-c1ccc(Cl)cc1)NCc1ccc2c(c1)OCO2 | -1.74 | 0.507 |
| CCCCOc1ccc(-c2noc(-c3ccc(OC)c(OC)c3)n2)cc1 | -0.102 | 0.977 |
| COc1ccc(C(C)=O)cc1CSc1nc(C)cc(=O)[nH]1 | 1.44 | 1.12 |
| Cc1ccccc1N1C(=O)c2ccccc2C1Nc1ccc(Cl)cc1 (configuration not stated) | -0.0946 | 0.997 |
| CCOc1ccc(-c2cc(C(=O)N3CCN(c4ccccc4)CC3)c3ccccc3n2)cc1 | -7.87 | 0.847 |
| COc1ccccc1NC(=O)C1CCC(CNS(=O)(=O)c2cccc3cccnc23)CC1 (configuration not stated) | -0.748 | 0.983 |
| CCOC(=O)Cc1nnc(NC(=O)c2ccc(OC)cc2)s1 | 1.01 | 1.11 |
| O=C(c1cnc(N2CCN(c3ncccn3)CC2)c2ccccc12)N1CCCCCC1 | -1.33 | 0.923 |
| Cc1cccc(OCC(=O)Nc2c(C(=O)c3ccccc3)oc3ccccc23)c1 | 0.0945 | 1.02 |
| COc1ccc2nc(N3CCC(C(=O)NCc4ccccc4OC)CC3)sc2c1 | 0.106 | 1.01 |
| COc1nccnc1NS(=O)(=O)c1ccc(NC(=O)c2cccc(F)c2)cc1 | 0.0913 | 1 |
| CC1CCCC(NC(=O)Cn2nc(Cc3ccncc3)c3ccccc3c2=O)C1C (configuration not stated) | 0.127 | 1 |
| Cc1ccc(C)c(CN2C(=O)c3ccccc3S(=O)(=O)c3ccc(C(=O)NCCC(C)C)cc32)c1 | 1.5 | 1.1 |
| COc1ccc(N2C(=O)CC(NCCc3ccc(Cl)cc3)C2=O)cc1 (configuration not stated) | -0.0534 | 0.998 |

Some of these compounds in order of SMILES length, largest number first:
| SMILES | CBX7 AlphaScr z-score | CBX7 AlphaScr |
| --- | --- | --- |
| CCN(CC)c1ccc(NS(=O)(=O)c2ccc3c(c2)CC(C)N3C(C)=O)c(C)c1 (configuration not stated) | -0.226 | 0.944 |
| CCN(CC)CCNC(=O)c1ccc2c(c1)N(Cc1ccc(F)cc1Cl)C(=O)CS2 | 12.9 | 1.84 |
| Cc1ccc2cc(CCNC(=O)COc3ccc(Cl)cc3Cl)c(=O)[nH]c2c1 | 2.65 | 1.21 |

Additional entries follow.
| SMILES | CBX7 AlphaScr z-score | CBX7 AlphaScr |
| --- | --- | --- |
| Cc1ccc(-c2noc(CSc3nnnn3C3CCCCC3)n2)cc1 | 4.06 | 1.28 |
| COc1cc(OC)c(NC(=O)Cc2c(C(=O)O)[nH]c3ccccc23)cc1Cl | -0.0871 | 0.996 |
| CCOc1ccccc1NC(=O)c1c(NC(=O)c2ccccc2)sc2c1CCC(C)C2 (configuration not stated) | 4.68 | 1.14 |
| CCCN1CCOC(CC(=O)Nc2ccccc2)C1=O (configuration not stated) | 0.356 | 1.02 |
| O=C1CCc2cc(S(=O)(=O)N3CCN(c4cccc(C(F)(F)F)c4)CC3)ccc2N1 | -1.98 | 0.917 |
| O=C(NCc1c(F)cc(F)cc1F)c1ccc2c(c1)N(Cc1c(F)cccc1Cl)C(=O)CS2 | 0.0665 | 1.04 |
| Cc1ccc(-n2c(C)nc3c(cnn3-c3ccc(C)cc3)c2=O)cc1 | -2.13 | 0.861 |
| O=C1CC(c2cccc(F)c2)c2cc3c(cc2N1)OCCO3 (configuration not stated) | -0.0567 | 0.993 |
| N#Cc1nc(COc2ccc(Cl)cc2)oc1N1CCCCC1 | -10.4 | 0.761 |
| CC(=O)Nc1ccc2nc(-c3cc(C)ccc3C)[nH]c2c1 | 0.0469 | 1.04 |
| CCCc1cc(-c2nc(-c3ccc(Br)cc3)cs2)ccn1 | -0.959 | 0.909 |
| COc1ccc(CCNC(=O)CCCc2cn(C)c3ccccc23)cc1OC | -0.623 | 0.92 |
| COc1ccc(-c2cn3c(C)c(C(=O)Nc4ccc(F)c(F)c4)sc3n2)cc1 | -1.35 | 0.917 |
| COc1ccc(NC(=O)c2sc3nc(-c4ccc(F)cc4)cn3c2C)cc1 | -0.817 | 0.957 |
| CCOCCCNC(=O)CSCc1nc(-c2ccc(Cl)cc2)oc1C | 3.44 | 1.08 |
| CCOc1ccc(C(=O)Nc2cccc(-c3nc4cccnc4o3)c2)cc1Cl | 0.753 | 1.06 |
| Cc1ccc2nc(-c3c[nH]c4ccccc34)c(Nc3ccc4c(c3)OCCO4)n2c1 | -2.29 | 0.647 |
| Cc1cccc(-c2nc(Nc3ccccc3F)c3ccccc3n2)c1 | 4.84 | 1.2 |
| Cc1ccc(NC(=O)Cn2cnc3scc(-c4ccccc4)c3c2=O)cc1F | 2.64 | 1.1 |
| O=C(NCc1ccccc1Cl)c1ccc2c(c1)N(Cc1ccccc1F)C(=O)CS2 | 1.27 | 1.03 |
| O=C(Nc1cccc(C(F)(F)F)c1)c1cccnc1NCCO | 0.914 | 1.03 |
| CCCNC(=O)Cn1cnc2sc(C(=O)Nc3ccccc3F)c(C)c2c1=O | -0.622 | 0.981 |
| CC(C)c1ccc2oc(-c3cccc(NC(=O)c4cc5ccccc5o4)c3)nc2c1 | 2.4 | 1.09 |
| COc1ccccc1CNC(=O)c1ccc2c(c1)N(Cc1ccc(F)cc1)C(=O)c1ccccc1S2=O (configuration not stated) | -5.16 | 0.814 |
| CCOc1ccc(C2CC(=O)N2C2(C(=O)Nc3ccc(OC)cc3)CCCCC2)cc1OC (configuration not stated) | -1.22 | 0.921 |
| COc1ccc(-c2nc(N)nc(C(F)(F)F)c2-c2cscn2)c(O)c1 | -0.342 | 0.98 |
| O=C(NCc1ccccc1)c1cnn2c(C(F)(F)F)cc(-c3ccc(Br)cc3)nc12 | 2.85 | 1.12 |
| Cc1ccccc1-c1nc2cc(NC(=O)c3cccs3)ccc2o1 | 0.764 | 1.02 |
| COc1ccccc1CNC(=O)CC(C(=O)N1CCc2ccccc21)n1ccnc1 (configuration not stated) | -5.5 | 0.779 |
| Cc1ccc(-c2nnc(Nc3ccc(Cl)cc3)c3ccccc23)cc1S(=O)(=O)N1CCOCC1 | -0.00232 | 1 |
| CC1CCN(c2c(NCc3ccc(C(=O)Nc4ccc(F)cc4)cc3)c(=O)c2=O)CC1 | 0.233 | 1.01 |
